Screening data (PubChem BioAssay)
A1 apoptosis 2 – A1 inhibitors via caspase activation, primary screen, cell-based, luminescence, HTS, two replicates; MEF A1-2A-BIM cells, caspase-Glo luminescence, 3 h; percent of clofoctol response, DMSO zero; caspase activation, % (test concentration not listed); 24,000 tested, under 10 active; in the data active = caspase activation above about 5.9%;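 note: wells of about 30 µL received 50 nL stock; the first replicate is given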
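Evaluation: Caspase-3/7 activity from luminescence increase | Assay system: A1-2A-BIM mouse embryonic fibroblasts | Quantity: 2500 MEF cells/well | Medium: RPMI-1640 plus 10% FBS | Detection: Caspase-Glo 3/7 luminescence, 1 h at room temperature | Dosing: 50 nL compound per well, pinned | Timing: Cells settled overnight, compound exposure 3 h at 37 °C, 5% CO2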
An asterisk follows results filed as active. A portion of the library; the hit share may differ from the screen's.

SMILES	A1 apoptosis 2
C[C@@H]1CN([C@H](C)CO)C(=O)Cc2cc(NC(=O)Nc3ccc4c(c3)OCO4)ccc2O[C@H]1CN(C)CC1CC1	0.5
COc1ccc(NC(=O)N(C)C[C@@H]2Oc3ccc(NS(=O)(=O)c4ccccc4)cc3C(=O)N([C@@H](C)CO)C[C@@H]2C)cc1	0.8
C[C@H](CO)N1C[C@H](C)[C@H](CN(C)S(=O)(=O)c2ccc(F)cc2)Oc2c(NS(=O)(=O)c3cn(C)cn3)cccc2C1=O	-0.6
C[C@@H]1CN([C@@H](C)CO)C(=O)c2cccc(NC(=O)Nc3ccc(F)cc3)c2O[C@H]1CN(C)Cc1ccc(Oc2ccccc2)cc1	0.6
C[C@@H]1CCCCO[C@H](CN(C)C)[C@@H](C)CN([C@@H](C)CO)C(=O)c2cc(NC(=O)Nc3ccc(F)cc3)ccc2O1	0.6
C[C@@H]1CCCCO[C@H](CN(C)C(=O)Nc2ccc3c(c2)OCO3)[C@H](C)CN([C@@H](C)CO)C(=O)c2cc(NC(=O)c3ccccc3)ccc2O1	-0.8
Cc1ccc(S(=O)(=O)N(C)C[C@@H]2Oc3c(NS(=O)(=O)c4ccc(Cl)cc4)cccc3C(=O)N([C@H](C)CO)C[C@@H]2C)cc1	-0.5
CC(C)NC(=O)Nc1ccc2c(c1)C(=O)N([C@H](C)CO)C[C@H](C)[C@H](CN(C)C(=O)Nc1ccccc1)O2	0.5
Cc1ccc(S(=O)(=O)Nc2ccc3c(c2)C(=O)N([C@@H](C)CO)C[C@@H](C)[C@H](CN(C)Cc2ccncc2)OCCCC[C@H](C)O3)cc1	0.1
C[C@@H]1CCCCO[C@@H](CN(C)C(=O)CCCN(C)C)[C@@H](C)CN([C@@H](C)CO)C(=O)c2cc(NS(=O)(=O)c3cccs3)ccc2O1	-0.8
Cc1ccc(S(=O)(=O)Nc2ccc3c(c2)C(=O)N([C@H](C)CO)C[C@H](C)[C@@H](CN(C)S(=O)(=O)c2ccccc2)OCCCC[C@@H](C)O3)cc1	0.8
C[C@@H]1CCCCO[C@H](CN(C)C(=O)C2CCCCC2)[C@H](C)CN([C@H](C)CO)C(=O)c2cc(NC(=O)c3ccncc3)ccc2O1	0.2
C[C@@H]1CN([C@@H](C)CO)C(=O)Cc2cc(NC(=O)NC3CCCCC3)ccc2O[C@@H]1CN(C)C(=O)Nc1ccc2c(c1)OCO2	0.1
C[C@@H]1CN([C@@H](C)CO)C(=O)c2cc(NS(C)(=O)=O)ccc2O[C@H]1CN(C)C(=O)Nc1ccc(F)cc1	0.7
COc1ccc(S(=O)(=O)Nc2cccc3c2O[C@H](CN(C)CC2CC2)[C@@H](C)CN([C@@H](C)CO)C3=O)cc1	-0.7
Cc1noc(C)c1S(=O)(=O)N(C)C[C@H]1Oc2ccc(NC(=O)Nc3ccc(F)cc3)cc2CC(=O)N([C@H](C)CO)C[C@H]1C	-0.8
C[C@@H]1CN([C@@H](C)CO)C(=O)Cc2cc(NC(=O)C3CC3)ccc2O[C@H]1CN(C)C(=O)Nc1ccccc1	0.0
C[C@@H]1CCCCO[C@@H](CN(C)Cc2ccccc2)[C@@H](C)CN([C@H](C)CO)C(=O)c2cc(NC(=O)Nc3ccc4c(c3)OCO4)ccc2O1	-0.7
C[C@@H]1CN([C@@H](C)CO)C(=O)c2cc(NC(=O)Nc3ccccc3)ccc2O[C@@H]1CN(C)C(=O)Nc1ccc(C(F)(F)F)cc1	-0.7
COc1ccc(S(=O)(=O)N(C)C[C@H]2OCCCC[C@H](C)Oc3ccc(NS(C)(=O)=O)cc3C(=O)N([C@@H](C)CO)C[C@@H]2C)cc1	-0.3
CCO[C@H]1OC(C(=O)Nc2ccccc2)=C[C@@H](c2coc3ccccc3c2=O)[C@@H]1CCCO	-1.3
COc1ccc(S(=O)(=O)Nc2cccc3c2O[C@@H](CN(C)S(=O)(=O)c2ccc(F)cc2)[C@@H](C)CN([C@H](C)CO)C3=O)cc1	-1.2
C[C@@H]1CN([C@H](C)CO)C(=O)c2cccc(NC(=O)c3cnccn3)c2O[C@H]1CN(C)S(=O)(=O)c1cccs1	-0.6
C[C@@H]1CN([C@H](C)CO)C(=O)c2cccc(NS(=O)(=O)c3cccs3)c2O[C@H]1CN(C)C(=O)NC1CCCCC1	0.2
O=C(C1=C[C@H](c2csc3ccccc23)C[C@H](OCc2ccc(CO)cc2)O1)N1CCCCC1	-0.4
Cc1noc(C)c1NC(=O)Nc1ccc2c(c1)C(=O)N([C@H](C)CO)C[C@@H](C)[C@H](CN(C)CC1CCCCC1)O2	0.7
Cc1noc(C)c1NC(=O)Nc1ccc2c(c1)CC(=O)N([C@H](C)CO)C[C@H](C)[C@H](CN(C)Cc1ccc(C(=O)Nc3ccccc3N)cc1)O2	-0.3
COc1ccc(S(=O)(=O)Nc2cccc3c2O[C@@H](CN(C)Cc2ccc(C(F)(F)F)cc2)[C@@H](C)CN([C@H](C)CO)C3=O)cc1	-1.9
C[C@H](CO)N1C[C@H](C)[C@@H](CN(C)C(=O)Nc2ccc3c(c2)OCO3)OCc2cn(nn2)CCCC1=O	0.5
O=C(CCCCCCC(=O)N/N=C/C1=CCCCC1)NO	-0.3
C[C@H](CO)N1C[C@H](C)[C@@H](CN(C)Cc2ccc(Cl)c(Cl)c2)Oc2ccc(NC(=O)Cc3ccccc3)cc2CC1=O	-0.4
Cc1noc(C)c1S(=O)(=O)N(C)C[C@@H]1OCCCC[C@H](C)Oc2ccc(NS(C)(=O)=O)cc2C(=O)N([C@H](C)CO)C[C@H]1C	-1.1
C[C@@H]1CN([C@H](C)CO)C(=O)Cc2cc(NC(=O)Cc3cn(C)c4ccccc34)ccc2O[C@H]1CN(C)S(=O)(=O)c1cn(C)cn1	0.4
C[C@@H]1CN([C@@H](C)CO)C(=O)c2cc(N(C)C)ccc2O[C@@H]1CN(C)S(=O)(=O)c1ccc(F)cc1	-0.5
C[C@@H]1CN([C@@H](C)CO)C(=O)c2cc(NS(=O)(=O)c3ccccc3)ccc2O[C@H]1CN(C)Cc1ccc(Oc2ccccc2)cc1	0.6
C[C@H]1CN([C@@H](C)CO)C(=O)c2cccc(NC(=O)c3ccncc3)c2O[C@H]1CN(C)S(=O)(=O)c1cn(C)cn1	0.6
C[C@@H]1CCCCO[C@@H](CN(C)C(=O)Nc2cccc3ccccc23)[C@@H](C)CN([C@H](C)CO)C(=O)c2cc(NS(=O)(=O)c3ccc(Cl)cc3)ccc2O1	-1.1
O=C(NO)c1cccc(C(=O)N/N=C/c2ccoc2)c1	-0.3
COc1ccc(CN(C)C[C@H]2Oc3ccc(NC(=O)Cc4ccccc4)cc3C(=O)N([C@H](C)CO)C[C@H]2C)cc1	0.7
C[C@H]1CN([C@@H](C)CO)C(=O)c2cc(NC(=O)CCC(F)(F)F)ccc2O[C@H]1CN(C)Cc1ccc(C(=O)O)cc1	-0.4
CC(=O)n1cc([C@@H]2C=C(C(=O)N3CCCCCCC3)O[C@H](OCc3ccc(CO)cc3)C2)c2ccccc21	-0.1
C[C@H](CO)N1C[C@H](C)[C@@H](CN(C)S(C)(=O)=O)OCCCC[C@H](C)Oc2ccc(NC(=O)C3CCCCC3)cc2C1=O	2.7
Cc1noc(C)c1S(=O)(=O)Nc1ccc2c(c1)C(=O)N([C@@H](C)CO)C[C@H](C)[C@@H](CN(C)C(=O)c1ccccc1)OCCCC[C@H](C)O2	0.4
COc1ccc(S(=O)(=O)N(C)C[C@@H]2OCc3cn(nn3)CCCC(=O)N([C@@H](C)CO)C[C@@H]2C)cc1	0.2
C[C@H](CO)N1C[C@H](C)[C@@H](CN(C)CC2CC2)Oc2ccc(NC(=O)Cc3ccccc3)cc2C1=O	1.4
C[C@H](CO)N1C[C@H](C)[C@@H](CN(C)Cc2ccc(-c3ccccc3)cc2)Oc2ccc(NC(=O)Nc3ccc4c(c3)OCO4)cc2CC1=O	-0.3
C[C@@H]1CN([C@@H](C)CO)C(=O)c2cccc(NC(=O)Nc3ccc4c(c3)OCO4)c2O[C@@H]1CN(C)Cc1ccc(C(F)(F)F)cc1	0.2
C[C@@H]1CN([C@@H](C)CO)C(=O)Cc2cc(NC(=O)NC3CCCCC3)ccc2O[C@@H]1CN(C)S(=O)(=O)c1cccs1	-0.4
C[C@@H]1CN([C@@H](C)CO)C(=O)c2cc(NC(=O)c3ccncc3)ccc2O[C@@H](C)CCCCO[C@@H]1CN(C)C(=O)c1ccccc1	0.6
COc1ccc(S(=O)(=O)Nc2ccc3c(c2)C(=O)N([C@@H](C)CO)C[C@@H](C)[C@H](CN(C)C(=O)Nc2cccc4ccccc24)OCCCC[C@H](C)O3)cc1	0.2
C[C@@H]1CN([C@H](C)CO)C(=O)Cc2cc(NC(=O)C3CCCCC3)ccc2O[C@@H]1CN(C)S(=O)(=O)c1ccc(F)cc1	-2.1
C[C@H](CO)N1C[C@H](C)[C@@H](CN(C)C(=O)Nc2cccc3ccccc23)Oc2ccc(NS(=O)(=O)c3ccccc3)cc2C1=O	0.5
C[C@@H]1CN([C@H](C)CO)C(=O)c2cc(NC(=O)CCC(F)(F)F)ccc2O[C@@H](C)CCCCO[C@@H]1CN(C)C(=O)Cc1ccccc1	-0.8
C[C@@H]1CN([C@H](C)CO)C(=O)Cc2cc(NC(=O)C3CC3)ccc2O[C@H]1CN(C)C(=O)Nc1ccccc1	-2.3
COc1ccc(S(=O)(=O)Nc2cccc3c2O[C@@H](CN(C)Cc2ccc(C(=O)Nc4ccccc4N)cc2)[C@@H](C)CN([C@@H](C)CO)C3=O)cc1	0.4
COc1ccc(NC(=O)Nc2ccc3c(c2)C(=O)N([C@@H](C)CO)C[C@@H](C)[C@@H](CN(C)C(=O)Nc2ccc4c(c2)OCO4)OCCCC[C@@H](C)O3)cc1	-0.8
COc1ccc(NC(=O)N(C)C[C@@H]2Oc3c(NS(=O)(=O)c4cn(C)cn4)cccc3C(=O)N([C@H](C)CO)C[C@@H]2C)cc1	0.4
Cc1noc(C)c1S(=O)(=O)Nc1ccc2c(c1)C(=O)N([C@H](C)CO)C[C@H](C)[C@H](CN(C)C)O2	0.2
C[C@@H]1CCCCO[C@H](CN(C)C(=O)Nc2ccc(C(F)(F)F)cc2)[C@H](C)CN([C@@H](C)CO)C(=O)c2cc(N(C)C)ccc2O1	-1.2
C[C@H](CO)N1C[C@H](C)[C@@H](CN(C)Cc2ccccc2)OCCCC[C@H](C)Oc2ccc(NC(=O)CCC(F)(F)F)cc2C1=O	-0.6

Additional structures:
SMILES	A1 apoptosis 2
COc1ccc(CN(C)C[C@H]2Oc3ccc(NC(=O)NC(C)C)cc3CC(=O)N([C@H](C)CO)C[C@@H]2C)cc1	1.5
CNC[C@@H]1Oc2c(NC(=O)c3cnccn3)cccc2C(=O)N([C@H](C)CO)C[C@@H]1C	0.0
C[C@H](CO)N1C[C@H](C)[C@@H](CN(C)C(=O)Nc2cccc3ccccc23)Oc2ccc(NC(=O)NC3CCCCC3)cc2C1=O	0.5
CNC[C@@H]1Oc2ccc(NC(=O)Cc3ccccc3)cc2C(=O)N([C@@H](C)CO)C[C@H]1C	1.0
C[C@H](CO)N1C[C@H](C)[C@H](CN(C)C)Oc2c(NS(=O)(=O)c3ccccc3)cccc2C1=O	-0.3
O=C(N/N=C/c1ccc(Br)cc1)c1ccccc1O	-7.4
COc1ccc(S(=O)(=O)N(C)C[C@H]2Oc3ccc(NC(=O)Nc4c(C)noc4C)cc3CC(=O)N([C@H](C)CO)C[C@H]2C)cc1	0.0
C[C@@H]1CN([C@H](C)CO)C(=O)Cc2cc(NS(=O)(=O)c3ccc(Cl)cc3)ccc2O[C@@H]1CN(C)C(=O)Nc1ccc(F)cc1	0.2
COc1ccc(S(=O)(=O)Nc2ccc3c(c2)C(=O)N([C@@H](C)CO)C[C@H](C)[C@H](CN(C)C)OCCCC[C@H](C)O3)cc1	-1.0
Cc1ccc(S(=O)(=O)Nc2ccc3c(c2)CC(=O)N([C@H](C)CO)C[C@@H](C)[C@H](CN(C)C(=O)NC2CCCCC2)O3)cc1	-0.3
C[C@@H]1CN([C@@H](C)CO)C(=O)c2cccc(N(C)C)c2O[C@H]1CN(C)C(=O)Nc1ccc(C(F)(F)F)cc1	0.4

11 successive entries from above, for reference:
SMILES	A1 apoptosis 2
C[C@@H]1CCCCO[C@H](CN(C)C(=O)Nc2ccc(C(F)(F)F)cc2)[C@H](C)CN([C@@H](C)CO)C(=O)c2cc(N(C)C)ccc2O1	-1.2
C[C@H](CO)N1C[C@H](C)[C@@H](CN(C)Cc2ccccc2)OCCCC[C@H](C)Oc2ccc(NC(=O)CCC(F)(F)F)cc2C1=O	-0.6
COc1ccc(CN(C)C[C@H]2Oc3ccc(NC(=O)NC(C)C)cc3CC(=O)N([C@H](C)CO)C[C@@H]2C)cc1	1.5
CNC[C@@H]1Oc2c(NC(=O)c3cnccn3)cccc2C(=O)N([C@H](C)CO)C[C@@H]1C	0.0
C[C@H](CO)N1C[C@H](C)[C@@H](CN(C)C(=O)Nc2cccc3ccccc23)Oc2ccc(NC(=O)NC3CCCCC3)cc2C1=O	0.5
CNC[C@@H]1Oc2ccc(NC(=O)Cc3ccccc3)cc2C(=O)N([C@@H](C)CO)C[C@H]1C	1.0
C[C@H](CO)N1C[C@H](C)[C@H](CN(C)C)Oc2c(NS(=O)(=O)c3ccccc3)cccc2C1=O	-0.3
O=C(N/N=C/c1ccc(Br)cc1)c1ccccc1O	-7.4
COc1ccc(S(=O)(=O)N(C)C[C@H]2Oc3ccc(NC(=O)Nc4c(C)noc4C)cc3CC(=O)N([C@H](C)CO)C[C@H]2C)cc1	0.0
C[C@@H]1CN([C@H](C)CO)C(=O)Cc2cc(NS(=O)(=O)c3ccc(Cl)cc3)ccc2O[C@@H]1CN(C)C(=O)Nc1ccc(F)cc1	0.2
COc1ccc(S(=O)(=O)Nc2ccc3c(c2)C(=O)N([C@@H](C)CO)C[C@H](C)[C@H](CN(C)C)OCCCC[C@H](C)O3)cc1	-1.0
